Screening results from PubChem BioAssay.
Menin MLL FP FL: displaces fluorescein MLL peptide from human menin; Fluorescence polarization, fluorescein-MLL peptide displacement from menin; 290,000 tested, under 10 active; AID 1766; FP activity change, % at 61.4 µM; inconclusive = falling polarisation curve, or a change in total fluorescence; inactive = total fluorescence flat and polarisation flat or rising; no compound was filed as active; the % refers to the polarisation; negative = inhibition;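 also: % of control where 0% means no effect; inhibitors lower the polarisation; unlabelled MLL peptide was the positive control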
gsp agonist: gsp mutant agonism. Potency, µM (doses to about 76.9 µM), inactives show top-dose activation (cAMP increase), actives largely listed as activators. gsp mutant cells, cAMP HTRF, 30 min; control for the full effect not named in the record. 340,000 compounds, 0.13% hits; active = well fitted activation curve with a large enough effect; inconclusive = small, poorly fitted or top-dose-only effect, or another doubt; inactive = no such curve, though single readings can be large or run the other way; cell line not stated here;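 also: phosphodiesterase inhibitor Ro 20-1724 added with compounds to block cAMP breakdown; potency is read from the fitted curve at half-maximal effect; nearly all actives have a fitted effect of over 60% in size; about a fifth of the inactives were tested at one dose only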
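Cells stably selected in G418 were plated at 2000/well, grown 16-24 hr, then given compounds in DMSO with the PDE inhibitor […] (300 uM solution added) for 30 min at 37C; cAMP was read by HTRF.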
Sfp PPTase inh: inhibitors of Bacillus subtilis Sfp phosphopantetheinyl transferase. 310,000 compounds, 3.5% hits. Potency, µM, for inactives: max response, negative = inhibition, actives largely listed as inhibitors. Q9F4F7. Biochemical Sfp PPTase activity, qHTS; active = well fitted inhibition curve with a large enough effect; inconclusive = small, poorly fitted or top-dose-only effect, or another doubt; inactive = no such curve, though single readings can be large or run the other way;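 also: the enzyme is Sfp with the accession as filed and its product quenches rhodamine fluorescence; potency is read from the fitted curve at half-maximal effect; 0% = enzyme reaction without inhibitor and -100% = no enzyme wells; top concentration of the series not given in the record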
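Step 1, compound plus 15 nM Sfp-PPTase, 15 min, room temperature. Step 2, add rhodamine-CoA (5 uM) and BHQ-2-YbbR (12.5 uM). Step 3, read 525/598 nm fluorescence at 0 and 30 min.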
gsp antag: antagonists of gsp mutant (McCune-Albright syndrome). gsp-mutant cells, cAMP HTRF, 30 min; control for the full effect not named in the record. Potency, µM (doses to about 76.9 µM), for inactives: top-dose activity change, negative = inhibition, hits mostly inhibitors. 340,000 compounds, 0.4% hits. AID 624288; active = falling curve of any shape with a large fitted effect; inconclusive = falling curve, mostly with a smaller effect; inactive = flat or rising curve; cell line not stated here;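 also: intracellular cAMP measured with PDE inhibitor Ro 20-1724 present during compound exposure; potency is read from the fitted curve at half-maximal effect; % is scaled to controls: 0 for no effect and ±100 for the full control effect; nearly all actives have a fitted effect of over 65% in size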
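HTRF cAMP read-out (cAMP-d2 plus anti-cAMP antibody-K in lysis buffer, 30 min RT). Before lysis, cells are exposed to compounds with […] for 30 min at 37C in DPBS containing Ca/Mg, BSA and Tween 20.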
ClpP mod: qHTS Assay for Activators of ClpP; ATP-dependent Clp protease proteolytic subunit (Bacillus subtilis (strain 168)), P80244; purified B. subtilis ClpP, FRET peptide cleavage, 20 min; Potency, µM (top dose mostly 57.5 µM), for inactives: at the top dose activity change, negative = active; 340,000 compounds, 1.9% hits; AID 651965, 2013; active = well fitted falling curve with a large enough effect; inconclusive = small, poorly fitted or top-dose-only effect; inactive = no such curve, though single readings can be large or run the other way; also: potency is read from the fitted curve at half-maximal effect; the source files actives as falling curves though it sought activators and does not explain the sign; nearly all actives have a fitted effect of over 65% in size; many hits overshoot -100%
Target sequence (P80244 whole entry, looked up): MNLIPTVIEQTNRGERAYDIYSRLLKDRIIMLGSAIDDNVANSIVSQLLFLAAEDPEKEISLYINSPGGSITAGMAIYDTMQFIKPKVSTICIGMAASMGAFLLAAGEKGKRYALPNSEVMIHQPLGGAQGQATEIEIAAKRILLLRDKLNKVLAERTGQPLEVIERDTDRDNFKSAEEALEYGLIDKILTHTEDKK
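ClpP 10 microg/mL final, pH 8 Tris/KCl buffer with BSA, glycerol, Tween-20; compound pinned in; FRET-FV substrate; RT 20 min; Ex320/Em430; ΔFRET vs ADEP 5.8 microM, DMSO, no enzyme.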
CtBP-E1A blk: inhibitors of CtBP/E1A interaction; AlphaScreen GST-E1A/His-CtBP binding, 1536-well; active compounds read low; control for the full effect not named in the record; activity change, % (no concentration beside the values); 340,000 compounds, 0.49% hits; in the data active means activity change below about -65%; inconclusive means about -30% to -65%; inactive means above about -30%; also: % is scaled to controls: 0 for no effect and ±100 for the full control effect
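Steps: dispense buffer (Tris pH 8.0, NaCl 300 mM, TCEP 1 mM, BSA, Tween 20); add 5X protein mix (GST-E1A, His-CtBP, 125 nM each); pin 23 nL compound; 2 h at 37 °C, dark; add 5X beads (50 ug/mL); 1 h; read.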
TRPV1 potentiator: human TRPV1 potentiation; potentiation, % at 8.33 µM; TRPV1-expressing cells, Fluo-8 calcium influx, capsaicin EC20 potentiation; host cell line not named in the record; control for the full effect not named in the record; 320,000 compounds, 0.02% hits; Q8NER1; active means potentiation above 80%; inconclusive means 30% to 80%; inactive means below 30%; also: 0% is about no effect
Target sequence (Q8NER1 whole entry, looked up): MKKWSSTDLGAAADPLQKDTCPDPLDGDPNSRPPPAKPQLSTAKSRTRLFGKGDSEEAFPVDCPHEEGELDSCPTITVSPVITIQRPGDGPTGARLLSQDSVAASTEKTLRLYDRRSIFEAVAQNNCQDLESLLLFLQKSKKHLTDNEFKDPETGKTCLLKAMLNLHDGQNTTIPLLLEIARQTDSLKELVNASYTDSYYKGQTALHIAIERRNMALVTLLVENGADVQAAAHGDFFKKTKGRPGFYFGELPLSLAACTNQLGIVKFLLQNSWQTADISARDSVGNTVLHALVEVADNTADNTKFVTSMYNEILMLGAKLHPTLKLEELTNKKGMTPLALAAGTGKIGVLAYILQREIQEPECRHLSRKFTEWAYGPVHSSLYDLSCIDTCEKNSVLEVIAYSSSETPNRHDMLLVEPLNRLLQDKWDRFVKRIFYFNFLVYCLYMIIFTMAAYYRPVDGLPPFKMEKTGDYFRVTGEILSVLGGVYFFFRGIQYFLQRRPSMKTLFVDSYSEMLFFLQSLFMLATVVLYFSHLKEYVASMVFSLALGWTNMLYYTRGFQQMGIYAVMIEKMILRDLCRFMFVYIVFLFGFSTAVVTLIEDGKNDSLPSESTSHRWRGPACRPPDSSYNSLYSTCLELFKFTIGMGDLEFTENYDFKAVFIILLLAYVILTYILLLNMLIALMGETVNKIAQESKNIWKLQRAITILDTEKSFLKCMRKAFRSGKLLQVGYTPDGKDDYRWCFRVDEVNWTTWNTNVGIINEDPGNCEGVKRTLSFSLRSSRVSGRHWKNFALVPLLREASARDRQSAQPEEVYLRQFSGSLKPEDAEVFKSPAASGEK
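Cells expressing TRPV1 were dye-loaded with Fluo-8 and read kinetically: 10 s baseline, 3 min after compound (agonist portion), then 2 min after EC20 capsaicin (allosteric enhancer portion). Calcium-bound dye fluorescence at 480/520 nm.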
* marks the source's active call; other numbers are inactive results; ? = inconclusive; . = not tested or not shown; & = joins results of further samples; [ ] = dose if it differs, or a comment.

structure,Sfp PPTase inh,ClpP mod,gsp agonist,CtBP-E1A blk,Menin MLL FP FL,gsp antag,TRPV1 potentiator
N=C(N)SCCN,-68%&-14%,0.8%,.,1,-0.3&-0.1&11,-2%,-12
Cc1cccc(C(=O)NCCC(=O)Nc2ccc(C#N)cc2)c1,11%,.,8%,-17,0.8,3%,5
CC1(C)C=C(c2ccc(C=O)s2)CC(C)(C)N1C=O,5%,22µM*,-9%,2,6.5,-1%,2
CCn1c(SCC(=O)Nc2ccc(S(=O)(=O)Nc3onc(C)c3C)cc2)nnc1-c1ccccc1,10%,-0.6%,-21%,-1,-3.1,-7%,7
CSc1ccc(/C=C/c2cc(=O)c3ccccc3[nH]2)cc1,14%,?,3%,-20,4.5,-8%,-18
OCCNc1c2ccccc2nc2ccccc12,3%,.,-1%[15.4 µM],-12,0.2,.,2
Cc1cccc(N(CC(=O)NCC2CCCO2)C(=O)CNS(=O)(=O)c2ccc(Cl)cc2)c1 (stereo not given),1%,-3.5%,15%[15.4 µM],13,1.5,-24%,4
NC(=O)CNC(=O)[C@@H]1CC2(CC(c3cccc(Br)c3)=NO2)CN1C(=O)c1ccc(Br)cc1 (stereo not given in full),0%,-1.2%,-7%,-9,3.2,-6%,2
Cc1ccc(S(=O)(=O)CCC(=O)OCC(=O)N2c3ccccc3CC2C)cc1 (stereo not given),.,-0.7%,-2%,-4,.,2%,-15
CCn1c(C)cs/c1=N\C(=S)Nc1ccccc1C,8%,-1.4%,-4%,-2,3.2,6%,9
COc1ccc(N2CCN(C(=O)CCCn3nnnc3CN3CCOCC3)C(C)C2)cc1 (stereo not given),13%,-6.0%,-1%[15.4 µM],5,-0.8,4%,8
COCCN(Cc1cc2cc3c(cc2n2nnnc12)OCO3)C(=O)c1ccccc1F,15%,-30%,3%,3,2.3,8%,-37

The list continues.
structure,Sfp PPTase inh,ClpP mod,gsp agonist,CtBP-E1A blk,Menin MLL FP FL,gsp antag,TRPV1 potentiator
CC1=C(C(=O)N2CCOCC2)C(c2ccccc2F)C2=C(CCCC2=O)N1 (stereo not given),17%,25µM*,-4%,19,6.4,8%,2
C[C@@H]1CN([C@H](C)CO)S(=O)(=O)c2ccc(Br)cc2O[C@@H]1CN(C)C(=O)NC1CCCC1,.,1.3%,-114%[inhibitor],-23,.,.,.
Cc1cccc(C(C(N)=O)c2ncc(C(F)(F)F)cc2Cl)c1 (stereo not given),21%,.,-8%,-5,1.7,6%,14
COc1ccccc1-c1c(C(F)(F)F)oc2cc(OS(C)(=O)=O)ccc2c1=O,6%,-1.5%,-8%,-3,1.4,-27%,-11
CC(=O)Nc1ccc(S(=O)(=O)N[C@@H](C)C(=O)N2CCN(C/C=C/c3ccccc3)CC2)cc1,.,0.6%,-17%,.,.,-4%,-14
N#Cc1cc2[nH]c3ccccc3c2[n+](-c2ccc([N+](=O)[O-])cc2)c1N,-2%,.,3%[15.4 µM],-1,1.3,-37%,8
O=C(C(=O)N1CCN(Cc2ccccc2)CC1)c1c[nH]c2ccccc12,.,1.8%,3%,-4,.,-2%,.
COc1ccc(NC(=S)N(C)CC2COc3ccccc3O2)cc1 (stereo not given),21%,0.8%,0%,1,5.9,6%,0
C=CCn1c(SCc2csc(C)n2)nc2sc3c(c2c1=O)CCC(C)C3 (stereo not given),?,-5.0%,-22%,4,-0.9,?,3
CC(C)OC(=O)CN1C(=O)C(=O)c2ccccc21,38%[activator],1.9%,19%,-9,4.7,0%,3
CC(=O)c1cccc(NC(=S)N2CCc3ccccc32)c1,-22%,-1.2%,2%,1,-0.3,-1%,-10
CCOc1cc(S(=O)(=O)N2CC=C(c3ccc(F)cc3)CC2)c(OCC)cc1-n1cnnn1,4%,?,-35%,7,3.0,5%,4

Next entries.
structure,Sfp PPTase inh,ClpP mod,gsp agonist,CtBP-E1A blk,Menin MLL FP FL,gsp antag,TRPV1 potentiator
O=C(C1CCN(S(=O)(=O)c2ccc(Cl)cc2)CC1)N1CCCC1,4%,.,5%[15.4 µM],-3,-2.7,-1%,-7
COc1cccc(OCCNc2cc(Cl)ccc2[N+](=O)[O-])c1,2%,-0.1%,-16%,5,0.7,-8%,13
O=C(N/N=C/c1ccc(O)cc1)c1cccc(N/N=C/c2ccc(O)cc2)c1,5%,-4.5%,?,?,2.1,-29%,9
O=C(Cn1cncn1)NCc1cccc2ccccc12,-6%,-0.8%,-2%,5,-0.5,13%,.
Fc1cccc(Cl)c1CSc1nnc(CN2CCOCC2)n1-c1ccccc1,22%,0.5%,?,1,6.6,-16%,-12
CC(C(=O)c1ccc(-c2ccccc2)cc1)[n+]1ccccc1 (stereo not given),15%,-19%,4%,-2,0.0,15%,7
O=C(Nc1ccccc1)N(Cc1cccs1)C1CCCC1,14%,1.8%,-7%,-1,0.2,-16%,-3
CC(C)(C)c1ccc(CNC(=O)c2ccc3c(c2)NC(=O)CO3)cc1,22%,.,17%[15.4 µM],7,3.7,9%,-17
CCn1c(SCC(=O)Nc2ccc(C)cc2)nnc1-c1ccccn1,?,.,14%[15.4 µM],-14,7.2,-7%,1
COc1ccc2[nH]c(=O)c(CNc3ccccc3)cc2c1,50µM*,16µM*,-2%,-11,3.4,-6%,0
CCN(Cc1ccccc1)C(=O)c1cc(S(=O)(=O)N2CCOCC2)cn1C,15%,-0.8%,3%,9,-11,5%,-10
Cc1[nH]c(C)c(S(=O)(=O)N(C)Cc2ccccc2)c1C(=O)N1CCCCC1,13%,-0.8%,6%,-1,.,13%,4

Three entries out of the list, arranged by number of heavy atoms, smallest number first:
structure,Sfp PPTase inh,ClpP mod,gsp agonist,CtBP-E1A blk,Menin MLL FP FL,gsp antag,TRPV1 potentiator
O=C(Cn1cncn1)NCc1cccc2ccccc12,-6%,-0.8%,-2%,5,-0.5,13%,.
COc1cccc(OCCNc2cc(Cl)ccc2[N+](=O)[O-])c1,2%,-0.1%,-16%,5,0.7,-8%,13
CCN(Cc1ccccc1)C(=O)c1cc(S(=O)(=O)N2CCOCC2)cn1C,15%,-0.8%,3%,9,-11,5%,-10

Limited to gsp agonist and TRPV1 potentiator, for 2 of the compounds above:
smiles | gsp agonist | TRPV1 potentiator
OCCNc1c2ccccc2nc2ccccc12 | -1%[15.4 µM] | 2
Cc1cccc(N(CC(=O)NCC2CCCO2)C(=O)CNS(=O)(=O)c2ccc(Cl)cc2)c1 (stereo not given) | 15%[15.4 µM] | 4

The list goes on:
structure,Sfp PPTase inh,ClpP mod,gsp agonist,CtBP-E1A blk,Menin MLL FP FL,gsp antag,TRPV1 potentiator
CCn1c(COc2ccc3ccccc3c2C)nnc1SCC(=O)Nc1cccc(C(=O)O)c1,2%,-4.2%,-43%[inhibitor],-21,.,0%,17
CCCCCCCCS(=O)C1CCS(=O)(=O)C1 (stereo not given),12%,1.2%,3%,14,-4.2,-3%,1
COC(=O)c1cn(NC(=O)C2CCC(C(C)(C)C)CC2)c(=O)c2ccccc12 (stereo not given),21%,-1.9%,12%,-1,2.0,15%,-1
Cc1cc(=O)oc2c3c(ccc12)OC/C3=N/N,-18%,-24%,3%,-8,4.2,6%,-13
O=c1sc(Nc2ccccc2)nc2ccsc12,-13%,-11%,10%,-4,-6.4,?,-11
Cc1oc(-c2cc(F)ccc2F)nc1CN1CCN(c2ncnc3ccccc23)CC1,40µM*,-2.6%,6%,.,4.2,?,-7
Cc1ccc(-c2nc3ccccc3nc2Cl)cc1,18%,-6.6%,3%[15.4 µM],1,0.3,-7%,-6
Oc1ccc(-c2cnc3ccccc3n2)cc1,.,-1.4%,9%[15.4 µM],-4,.,9%,.
COc1cc(NC(=O)Cn2cnc3c(OCc4ccccc4)ncnc32)cc(OC)c1OC,.,-0.6%,.,-13,.,-21%,.
O=C(NCc1ccncc1)Nc1ccccc1Cl,11%,0.9%,-53%[inhibitor],7,4.0,14%,3
N/C(=N\N=C\c1ccc2c(c1)OCO2)SC1CC(=O)N(c2ccc(C(=O)O)cc2)C1=O (stereo not given),-16%,.,-11%,-2,1.5,2%,-13
COc1ccc(C(=O)N/N=C/C(C)c2ccccc2)cc1OC (stereo not given),-10%,1.3%,-2%,0,-0.5,-3%,-4

Next entries
structure,Sfp PPTase inh,ClpP mod,gsp agonist,CtBP-E1A blk,Menin MLL FP FL,gsp antag,TRPV1 potentiator
COC(=O)C1CCN(C(=O)COC(=O)Cc2c[nH]c3ccccc23)CC1,-13%,32µM*,-42%[inhibitor],-7,-1.3,-1%,18
COc1ccccc1NC(=O)CCCc1c[nH]c2ccccc12,4%,.,-17%,-2,1.2,-9%,-10
Cc1ccc(C(=O)OCC(=O)NCC2CCCO2)c(C)c1 (stereo not given),16%,1.3%,0%,4,2.6,9%,0
COc1ccc(CCNC(=O)CCc2nc3ccccc3[nH]2)cc1OC,10%,0.9%,-25%,.,-0.1,14%,10
CCOc1ccc(Br)cc1S(=O)(=O)Nc1cccc(S(=O)(=O)N(C)C)c1,-8%,0.0%,17%[15.4 µM],3,1.6,-22%,-1
CC(C)(C)NS(=O)(=O)c1ccc(CCC(=O)Nc2ccc3c(c2)OCO3)cc1,4%,-2.6%,?,-4,1.5,1%,4
CCCCN(CC)CCCNC(=O)c1cc2c(=O)n(CC)c3ccccc3c2s1,8%,.,12%[15.4 µM],-2,5.0,8%,5
COc1cc2[nH]c(=O)c(C(=O)NCc3ccc(C)cc3)c(O)c2cc1OC,.,-16%,-21%,5,.,.,.
O=C(O)c1cccc(S(=O)(=O)N(Cc2ccccc2)c2cccc(C(F)(F)F)c2)c1,20%,.,-35%,-23,1.9,-18%,0
COc1ccc(CNCc2cccc(OC)c2OC)cc1Br,-20%,-2.8%,-50%[inhibitor],.,7.6,3%,-4
CSCC[C@H]1COC[C@@H](Cc2ccccc2)N1c1ccccc1,.,-0.5%,-104%[inhibitor],2,.,.,.
CN(C)C(CNC(=O)C1CCN(S(=O)(=O)c2ccccc2)CC1)c1ccccc1 (stereo not given),5%,-2.5%,3%,-9,-0.7,-2%,-1
